Bioassay records from PubChem BioAssay.
D1 antag: antagonists of human D1 dopamine receptor; activity change, negative = inhibition, % at 10 µM; HEK293 TREx D1 cells, calcium flux, dopamine EC80; active compounds read low; AID 504652; actives 3.2% (n = 360,000); in the data active = activity change below about -30%; note: % is set by controls: 0 for no effect and ±100 for the full control effect
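HEK293 T-REx cells expressing inducible, force-coupled D1 receptor; no-wash Ca dye, 30–90 min RT. Cmpd → 180 s read at 1 Hz → EC80 DA → 180 s read.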
D1 potentiator: potentiators of human D1 dopamine receptor; P21728; HEK293 TREx D1 cells, calcium flux, dopamine EC20 potentiation; potentiation, % at 10 µM; actives 0.036% (n = 360,000); AID 504651; in the data active = potentiation above about 30%; note: 0% is about no effect
TRHR PAM: allosteric enhancers of human TRH receptor. P34981. TRHR cells, fluo-8 calcium fluorescence, EC20 TRH enhancement. enhancement, % at 2 µM. actives 0.66% (n = 360,000). AID 493056; in the data active = enhancement above about 30%; note: 0% is about no effect
Target sequence (P34981 whole entry, looked up): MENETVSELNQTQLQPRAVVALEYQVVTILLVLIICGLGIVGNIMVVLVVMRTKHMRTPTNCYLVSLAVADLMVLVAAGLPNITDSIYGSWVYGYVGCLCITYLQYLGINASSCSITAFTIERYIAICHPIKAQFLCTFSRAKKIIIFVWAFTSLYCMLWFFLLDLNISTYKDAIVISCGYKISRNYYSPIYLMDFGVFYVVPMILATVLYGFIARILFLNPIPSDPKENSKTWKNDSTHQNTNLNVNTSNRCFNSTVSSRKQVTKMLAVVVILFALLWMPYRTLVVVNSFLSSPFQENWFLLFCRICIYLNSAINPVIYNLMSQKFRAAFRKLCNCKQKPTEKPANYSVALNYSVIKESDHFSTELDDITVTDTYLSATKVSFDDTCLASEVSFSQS
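TRHR-expressing cells loaded with fluo-8 calcium dye were read kinetically (ex 480/em 530) during compound addition, then stimulated with an EC20 of TRH (10 nM final). Enhancement of the Gq-mediated intracellular calcium response was scored.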
Apoferritin bind: candidate novel general anesthetic via apoferritin binding; P02791; Potency, µM (highest dose often 77.5 µM), for inactives: top-dose activity change, negative = displacement, hits mostly inhibitors; apoferritin/1-aminoanthracene competitive binding, fluorescence; actives 0.074% (n = 350,000); active = well fitted inhibition curve with a large enough effect; inconclusive = small, poorly fitted or top-dose-only effect; inactive = no such curve, though single readings can be large or run the other way; note: potency is the fitted concentration of half-maximal effect; % is set by controls: 0 for no effect and ±100 for the full control effect; nearly all actives have a fitted effect of over 20% in size
Target sequence (P02791 2-175 limits assumed): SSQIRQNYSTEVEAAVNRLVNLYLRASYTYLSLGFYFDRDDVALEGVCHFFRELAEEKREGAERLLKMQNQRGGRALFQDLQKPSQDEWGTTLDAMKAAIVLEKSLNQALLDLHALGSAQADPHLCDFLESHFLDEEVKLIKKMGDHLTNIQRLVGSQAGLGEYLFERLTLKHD
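Horse-spleen apoferritin (10 uM) was mixed with 50% saturated 1-aminoanthracene in PBS, exposed to compounds for 10 min at room temperature, and read for fluorescence (ex 380 nm, em 535 nm). Competitive displacement was fitted with a four-parameter Hill equation.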
TRHR agonist: TRH receptor (human) agonism; actives 0.18% (n = 360,000); TRHR cells, calcium flux fluo-8, FDSS agonist mode; activation, % at 2 µM; note: 0% is about no effect
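Read-out: compound-evoked intracellular calcium rise in TRHR cells, fluo-8 dye, kinetic FDSS fluorescence at 1 s/cycle following a 10-cycle baseline. Cells cultured overnight before dye loading (30 min–1.5 h, RT).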
D2 PAM: positively modulates the human D2 dopamine receptor allosterically; actives 0.34% (n = 340,000); P14416; potentiation, % at 10 µM; HEK293 T-REx D2, calcium flux, EC20 dopamine potentiation; AID 485347;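 active = potentiation over 3 SD above the plate norm, cut at about 30% in these data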; note: 0% is about no effect
Target sequence (P14416 whole entry, looked up): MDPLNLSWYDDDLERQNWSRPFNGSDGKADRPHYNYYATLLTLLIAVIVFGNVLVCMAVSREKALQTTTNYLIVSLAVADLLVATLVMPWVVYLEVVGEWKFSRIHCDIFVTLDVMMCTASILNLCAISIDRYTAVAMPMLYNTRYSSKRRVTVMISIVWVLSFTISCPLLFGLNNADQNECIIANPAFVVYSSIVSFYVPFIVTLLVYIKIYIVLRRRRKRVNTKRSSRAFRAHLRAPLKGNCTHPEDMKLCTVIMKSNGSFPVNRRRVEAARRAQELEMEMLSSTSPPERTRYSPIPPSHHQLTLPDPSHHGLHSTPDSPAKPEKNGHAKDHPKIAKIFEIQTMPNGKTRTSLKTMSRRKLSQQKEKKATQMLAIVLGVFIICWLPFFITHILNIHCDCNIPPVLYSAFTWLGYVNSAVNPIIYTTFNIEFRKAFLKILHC
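Potentiation of an EC20 dopamine calcium response is measured in a force-coupled, tetracycline-inducible Hek293 Trex D2 line. Compound-only kinetic reads over 180 s flag agonists before dopamine addition.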
D1 ag: agonists of human D1 dopamine receptor; P21728; HEK293 T-REx D1 cells, calcium flux, agonist mode; activation, % at 2 µM; actives 1% (n = 360,000); AID 504660; note: 0% is about no effect
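Agonism was scored from calcium flux recorded over 180 s (1 read/s) after pintool compound addition, following a 10-cycle baseline. Cells were inducible force-coupled HEK293 TREx D1, plated overnight at 30 C and loaded with no-wash calcium dye.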
An asterisk follows results filed as active; ? = inconclusive; nt = not tested or not shown; [ ] = another dose, or the depositor's remark. Cut-off read from the data, not from the text of the source, unless noted: active = activation above about 30%; inactive = the rest.

Sample of the layout:
SMILES	D1 antag	D1 potentiator	TRHR PAM	Apoferritin bind	TRHR agonist	D2 PAM	D1 ag
O=C1NS(=O)(=O)c2ccccc21	nt	nt	nt	9.0%	nt	nt	nt
CCCc1nc(NCc2ccncc2)c2nnn(Cc3ccccc3F)c2n1	16.5	3.9	0.3	2.0%	0.2	3.4	-0.1
CCc1nc(SCC(=O)NCc2ccc(F)cc2)c2c(=O)n(C)c(=O)n(C)c2n1	6.3	3.4	5.9	-0.4%	-0.8	8.1	1.2

The whole of this part, from the first entry:
SMILES	D1 antag	D1 potentiator	TRHR PAM	Apoferritin bind	TRHR agonist	D2 PAM	D1 ag
O=C1NS(=O)(=O)c2ccccc21	nt	nt	nt	9.0%	nt	nt	nt
CCCc1nc(NCc2ccncc2)c2nnn(Cc3ccccc3F)c2n1	16.5	3.9	0.3	2.0%	0.2	3.4	-0.1
CCc1nc(SCC(=O)NCc2ccc(F)cc2)c2c(=O)n(C)c(=O)n(C)c2n1	6.3	3.4	5.9	-0.4%	-0.8	8.1	1.2
COc1ccc(CCNc2nc3c(-c4cccc(F)c4)nnn3c3ccccc23)cc1OC	1.8	-3.3	0.3	13.9%	0.3	-3.4	1.3
Cn1c(=O)c2c(ncn2CC(=O)Nc2cccc(Cl)c2Cl)n(C)c1=O	0.3	-0.4	7.0	-4.4%	0.0	-2.3	5.0
Cc1ccc(N2CC(NC(=O)N3CCN(C(=O)c4ccco4)CC3)CC2=O)cc1 (stereo unspecified)	1.4	-6.2	-3.9	nt	0.2	-2.7	1.5
COC(=O)c1cccc(S(=O)(=O)N2CCC(NC(=O)Nc3cccc(F)c3)CC2)c1	-23.0	-3.2	-2.6	-13.1%	0.2	0.3	2.9
CCCCCOc1ccc(C(O)C(CN2CCOCC2)c2ccccc2)cc1 (stereo unspecified)	21.0	8.3	8.0	-13.8%	2.2	8.3	0.6
CCOC(=O)C1=C(C)NC2=C(C(=O)CC(c3ccc(OC)c(OC)c3)C2)C1c1ccc(C)o1 (stereo unspecified)	-13.0	2.1	-5.5	-13.0%	0.4	1.9	1.7
Cn1c(=O)c2sccc2n2c(CCCC(=O)NCc3ccccc3)nnc12	-8.0	-2.8	4.6	13.0%	0.5	nt	0.1
CC(C)CCNc1nc2c(S(=O)(=O)c3ccc(Br)cc3)nnn2c2ccsc12	-15.0	-3.6	3.3	21.0%	-0.5	-1.1	1.5
CCn1c(CNc2ccc(C)cc2)nnc1SCC(N)=O	4.1	-5.7	8.7	4.2%	1.1	-3.4	1.3
CCOCCCN(Cc1ccco1)S(=O)(=O)c1cc2c(cc1C)NC(=O)CO2	3.8	-1.9	-0.5	-9.0%	0.1	-6.6	0.5
Cc1sc2ncnc(SCC(=O)N3CCN(C(=O)c4ccco4)CC3)c2c1C	3.8	-0.1	-11.3	-18.5%	-0.9	7.4	5.5
O=C(CCc1ccc(CCC(=O)c2cccs2)s1)c1cccs1	-4.1	2.7	5.2	?	0.6	8.0	11.7
Cc1nc(NC(=O)c2ccc(Cl)cc2)sc1Cc1ccc2c(c1)OCO2	5.8	1.5	-1.6	-2.1%	-0.1	11.4	4.7
CCOC(=O)C1CCN(C(=O)CCc2nnc3ccc(N4CCN(C)CC4)nn23)CC1	6.0	3.3	9.5	-1.5%	0.7	1.3	1.6
CC(=O)c1ccc(N2CCN(S(=O)(=O)c3ccc4c(c3)NC(=O)CO4)CC2)cc1	-18.4	-3.3	2.6	-4.7%	0.9	-8.5	7.6
Cc1ccc2oc(-c3ccc(NC(=O)c4cccnc4)cc3)nc2c1	-1.8	-3.4	3.8	-5.3%	0.0	9.7	2.7
COC(=O)c1cccc(S(=O)(=O)N2CCC(NC(=O)NC34CC5CC(CC(C5)C3)C4)CC2)c1	27.1	12.0	9.4	-13.6%	0.0	5.5	1.7
Cc1nc2cc(S(=O)(=O)N3CCC(C(=O)O)CC3)ccc2n1C1CCCC1	-2.5	2.7	1.5	-4.5%	-0.6	5.4	1.3
Cc1ccc(CNC(=O)CSc2nc3ccsc3c(=O)n2Cc2ccccc2F)cc1	35.5	1.5	9.5	-12.3%	0.3	13.9	1.7
CCOC(=O)c1c(NC(=O)CSc2nnnn2-c2ccccc2)sc2c1CCC(C)C2 (stereo unspecified)	1.3	3.3	-3.1	-5.6%	-0.2	4.6	0.3
CCOC(=O)c1cccc(NC(=O)c2cnc3sc(N4CCOCC4)nn3c2=O)c1	-9.0	-0.1	8.5	3.8%	0.2	0.7	1.2
COc1ccc(Oc2nc3c(c(=O)n(C)c(=O)n3C)n2Cc2ccc(Cl)cc2Cl)cc1	-6.1	0.3	17.6	-3.5%	0.9	8.0	2.0
Other entries:
SMILES	D1 antag	D1 potentiator	TRHR PAM	Apoferritin bind	TRHR agonist	D2 PAM	D1 ag
COc1ccccc1C1C(C(=O)c2cc3ccccc3o2)=C(O)C(=O)N1c1cc(C)on1 (stereo unspecified)	7.9	-2.4	-1.8	?	-0.1	6.1	0.4
CCCOC(=O)c1cccc(NC(=O)C(C)(C)C)c1	6.1	0.8	-4.1	0.4%	0.6	-5.1	1.6
CC(=O)N(CCC(c1ccco1)C(C)C)Cc1ccc(Cl)cc1 (stereo unspecified)	-21.1	-1.8	-3.8	?	0.1	3.3	3.4
CCOC(=O)CSc1nc(CC)nc2ccccc12	7.6	-5.3	12.1	-15.5%	-0.4	4.0	0.0
CCCCOc1cccc(C(=O)Nc2ccc3oc(-c4cccnc4)nc3c2)c1	-6.6	-1.4	17.0	-10.6%	0.2	2.4	-1.3
COc1ccccc1N1C(=O)C2C(C(=O)c3ccccc3)=NN(c3ccc(Br)cc3)C2C1=O (stereo unspecified)	4.8	-2.2	-0.2	115.8%[activator]	19.6	1.7	35.2*
CCc1ccc2nc(SCC(=O)Nc3nnc(C)s3)c(C)cc2c1	-0.7	5.0	0.4	-3.4%	0.5	3.8	1.4
CN(Cc1ccccc1)C(=O)c1ccc2c(c1)OCCO2	-5.5	-0.6	-0.9	?	-0.3	4.3	1.0
CN(CC(=O)Nc1cccc(F)c1)C(=O)c1ccccc1Sc1ccccc1C#N	-3.4	-4.5	-16.1	nt	-0.3	2.6	5.9
CCOC(=O)CSc1nc(COc2ccccc2)nc2ccccc12	7.9	-10.4	5.0	?	-0.7	6.1	3.5
O=c1c(Cl)c(NS(=O)(=O)c2ccccc2)cnn1-c1ccccc1	3.0	-1.7	0.3	4.5%	0.0	3.5	2.0
O=C(NC1CCCCC1)C(c1ccncc1)N(Cc1ccc(F)cc1)C(=O)c1ccccn1 (stereo unspecified)	-4.9	0.9	-2.1	-0.4%	0.4	-2.2	3.5
O=C(COC(=O)/C=C/c1cccc(Br)c1)Nc1cccc(S(=O)(=O)NC2=NCCC2)c1	-18.0	-9.4	-3.9	nt	0.0	5.2	6.2
CCOc1ccc2c(c1)/C(=C(\C(Cl)=C(Cl)Cl)[N+](=O)[O-])N2	-2.2	6.2	-1.2	141.5%[activator]	1.0	5.2	-0.2
CCCCNC(=O)COC(=O)c1ccc(NS(=O)(=O)c2ccc3c(c2)OCCO3)cc1	-20.5	-0.3	2.8	?	-0.3	3.0	3.0
Cc1cccc(NS(=O)(=O)c2cc(C(=O)OCC(=O)Nc3cc(C)on3)ccc2C)c1	-21.2	-5.3	-10.9	?	0.4	3.0	3.1
Cc1cccc(OCC(=O)Nc2ccc(-c3nc4cc(C)ccc4o3)c(O)c2)c1	1.0	0.1	-0.1	-0.7%	-1.0	-4.5	0.1
Cc1sc2nc(CN3CCCC3)nc(N3CCN(S(=O)(=O)c4cccs4)CC3)c2c1C	-6.0	1.9	-16.4	-20.5%	-0.1	-6.8	2.2
CCSc1nnc(NC(=O)CSc2nc(CC)nc3c2c(=O)n(C)c(=O)n3C)s1	4.9	-5.0	10.7	2.6%	-1.5	12.6	1.2
c1ccc(C(c2nnnn2C2CCCC2)N2CCCCCC2)nc1 (stereo unspecified)	-0.4	3.7	-6.0	-5.8%	1.0	5.5	-1.0
C/C(=N\NC(=O)c1ccc(NS(=O)(=O)c2cccs2)cc1)c1ccccc1	6.7	5.3	-2.0	8.1%	-0.5	-1.4	-0.3
CCc1cc(C(=O)c2ccc(OC)cc2)c(NC(=O)CN2CCCC2)s1	4.9	-2.7	3.8	-12.6%	-0.8	10.1	12.6
Cc1ccc(-c2nn3c(C)nnc3s2)cc1N	-2.9	0.1	9.3	-10.7%	-0.3	13.2	-1.6
CCOC(=O)NC1(NCc2ccccc2)Oc2ccccc2O1	0.9	-2.8	1.7	-11.0%	-0.2	-2.5	1.1
CC(=O)c1sccc1NC(=O)c1ccccc1C(=O)O	32.9	-4.8	-3.1	-5.1%	-0.2	2.5	3.9

Limited to D1 potentiator, for 7 of the compounds above:
SMILES	D1 potentiator
CC(=O)N(CCC(c1ccco1)C(C)C)Cc1ccc(Cl)cc1 (stereo unspecified)	-1.8
CCCOC(=O)c1cccc(NC(=O)C(C)(C)C)c1	0.8
Cc1sc2nc(CN3CCCC3)nc(N3CCN(S(=O)(=O)c4cccs4)CC3)c2c1C	1.9
CCc1ccc2nc(SCC(=O)Nc3nnc(C)s3)c(C)cc2c1	5.0
CCc1cc(C(=O)c2ccc(OC)cc2)c(NC(=O)CN2CCCC2)s1	-2.7
CCCCOc1cccc(C(=O)Nc2ccc3oc(-c4cccnc4)nc3c2)c1	-1.4
CCOC(=O)CSc1nc(CC)nc2ccccc12	-5.3

Additional entries:
SMILES	D1 antag	D1 potentiator	TRHR PAM	Apoferritin bind	TRHR agonist	D2 PAM	D1 ag
CC1CCN(CCCn2c(=S)[nH]c3c(sc4ccccc43)c2=O)CC1	7.2	-0.5	16.7	-14.2%	-0.1	-12.3	0.5
CC(C)(C)C(=O)NC1(C(F)(F)F)C(=O)Nc2c1c(=O)[nH]c(=O)n2-c1ccccc1 (stereo unspecified)	-11.1	-0.6	0.9	1.6%	-0.3	-0.4	0.0
CCc1cc2c(cc3c(=O)n(CC(=O)N4CCCCC4)ncn32)s1	-8.1	-2.6	0.2	0.2%	-0.3	3.4	2.1
Cc1ccc(C)c(NC(=O)CCCn2nc(C)c3sc4ccccc4c3c2=O)c1	-5.6	-1.6	0.8	-3.9%	0.1	-4.1	1.4
CC(=O)N1CCN(c2nc(C)nc3sc4c(c23)CCC(C)C4)CC1 (stereo unspecified)	-5.4	6.4	3.4	-14.6%	-0.4	0.1	-0.2
O=c1c2ccccc2nc2sc(Nc3cccc(C(F)(F)F)c3)nn12	-10.8	-2.6	0.3	2.2%	0.1	1.7	2.4
CSc1n[nH]c(NCc2cccs2)n1	-24.6	3.0	5.7	-12.0%	-0.1	1.5	1.3
O=C(O)CSc1ncnc2scc(-c3ccccc3)c12	-4.0	-0.8	3.0	3.6%	0.0	24.5	0.4
CCOCCCNC(=O)c1cc(-c2ccc(Br)s2)nc2ccccc12	2.4	10.6	-1.3	12.3%	0.5	-7.9	3.1
COc1ccc(-c2nnc(S/C(=C/c3ccc(Cl)cc3)C(=O)O)o2)cc1	-27.7	-0.1	-6.6	-3.3%	1.8	0.2	2.5
Cc1nc2ccccc2nc1SCC(=O)N1CCC(C)CC1	16.0	-3.0	7.6	?	-0.5	-0.5	8.8
Cc1ccc2c(=O)c(C(=O)c3cccc(Cl)c3)cn(CC(=O)NCc3ccc(F)cc3)c2n1	-3.7	2.2	0.2	-2.2%	-0.2	3.0	3.7
CCCC(=O)Nc1ccc(Cl)c(-c2nc3ncccc3o2)c1	-0.1	-0.9	3.0	-4.3%	6.9	2.2	7.0
CCOc1cc(S(=O)(=O)NCc2ccc3c(c2)OCO3)c(C)cc1C	11.0	-3.5	-1.9	2.4%	-0.3	-5.0	0.8

These rows are one share of the data; rates above refer to the full screens.
